Screening results (PubChem BioAssay)
Cruzain noTriton: qHTS Assay for Promiscuous and Specific Inhibitors of Cruzain (without detergent). purified cruzain, Z-FR-AMC fluorescence, no detergent. Potency, µM, inactives show max response, negative = inhibition, actives largely listed as inhibitors. 200,000 compounds, 2.3% hits; active = well fitted curve in the direction sought with a large enough effect; inconclusive = small, poorly fitted or top-dose-only effect, or another doubt; inactive = no such curve, though single readings can be large; an effect the other way counts as inactive or inconclusive;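 note: plate controls were enzyme without inhibitor for no effect and buffer without enzyme for full effect; nearly all actives have a fitted effect of over 40% in size; top concentration of the series not given in the record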
Target sequence (P25779 123-467 limits assumed): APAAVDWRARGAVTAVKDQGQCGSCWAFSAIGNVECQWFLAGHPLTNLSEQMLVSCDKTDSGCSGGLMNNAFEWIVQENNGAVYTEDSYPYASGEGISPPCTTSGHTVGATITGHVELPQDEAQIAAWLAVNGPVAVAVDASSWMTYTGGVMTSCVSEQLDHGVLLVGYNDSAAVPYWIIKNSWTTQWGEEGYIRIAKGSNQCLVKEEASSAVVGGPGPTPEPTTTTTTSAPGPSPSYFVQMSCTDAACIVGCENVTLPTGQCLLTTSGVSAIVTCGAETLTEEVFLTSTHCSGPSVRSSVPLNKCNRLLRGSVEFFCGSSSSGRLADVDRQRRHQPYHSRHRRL
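Detergent-free condition (0.00005% Triton X-100) in acetate buffer pH 5.5 with DTT. 1.5 nM enzyme and compound were pre-mixed 15 min, then 2 uM Z-FR-AMC substrate added; reaction progress from fluorescence change between first and third reads (60 s).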
NS1 inh: qHTS Assay for Inhibitors of Influenza NS1 Protein Function; S. cerevisiae slowed by influenza A NS1, growth recovery by OD600; Potency, µM (doses to about 46.1 µM), inactives show at the top dose activity, positive = more growth; 270,000 compounds, 0.4% hits; note: actives are rising curves; nearly all actives have a fitted effect of over 50% in size
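Growth recovery, yeast-based: influenza A NS1 expressed in S. cerevisiae causes slow growth, and suppressors are detected by OD600. The parent strain without NS1 is used as positive control.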
LASV entry inh: qHTS for Inhibitors of binding or entry into cells for Lassa Virus; 300,000 compounds, 1.2% hits; Potency, µM (highest dose often 37.9 µM), for the others: top-dose activity change, negative = inhibition, hits mostly inhibitors; AID 540256, 2011; Lassa virus pseudotype entry inhibition, cell reporter; control for the full effect not named in the record; active means well fitted inhibition curve with a large enough effect; inconclusive means small, poorly fitted or top-dose-only effect, or effect the other way; inactive means flat fitted curve, though single readings scatter; tested in HEK293 cells; note: % is set by controls: 0 for no effect and ±100 for the full control effect; nearly all actives have a fitted effect of over 50% in size; luciferase read-out
RE007 growth inh: qHTS Assay for Inhibitors of the HIV-1 protein Vpr. S. pombe RE007 Vpr strain, BacTiter-Glo ATP luminescence, 24 h; control for the full effect not named in the record. Potency, µM (doses to about 92.2 µM), inactives show at the top dose activity change, negative = less growth. 360,000 compounds, 0.21% hits. AID 651644, 2012; active = well fitted falling curve with a large enough effect; inconclusive = small, poorly fitted or top-dose-only effect; inactive = no such curve, though single readings can be large or run the other way;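 note: % is set by controls: 0 for no effect and ±100 for the full control effect; nearly all actives have a fitted effect of over 50% in size; the assay follows cell death caused by Vpr and the record does not say whether a fall means rescue or toxicity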
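Fission yeast RE007 carrying one integrated HIV-1 vpr copy, seeded at OD 0.01 in PMG+AL medium with 23 nL pinned compound. Grown 24 h at 30 degrees; viability read by BacTiter-Glo luminescence after 5 min.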
Cruzain inh Det: qHTS Assay for Promiscuous and Specific Inhibitors of Cruzain (with detergent); Cruzipain (Trypanosoma cruzi), P25779; purified cruzain, Z-FR-AMC fluorescence, 0.01% Triton; Potency, µM, without a hit: max response, negative = inhibition, usual class: inhibitors; 200,000 compounds, 0.43% hits; active = well fitted curve in the direction sought with a large enough effect; inconclusive = small, poorly fitted or top-dose-only effect, or another doubt; inactive = no such curve, though single readings can be large; an effect the other way counts as inactive or inconclusive;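 note: plate controls were neutral wells for no effect and buffer without enzyme for full effect; nearly all actives have a fitted effect of over 40% in size; top concentration of the series not given in the record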
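Steps: dispense cruzain (1.5 nM final) in acetate buffer pH 5.5 with DTT and 0.01% Triton X-100; pin-transfer compounds; incubate 15 min RT; add Z-FR-AMC (2 uM final); read fluorescence every 30 s, using the 60 s intensity change.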
2A StopGo: High Throughput Screening for Foot and Mouth Disease Virus Antivirals | human cells with a luciferase reporter of 2A StopGo recoding; control for the full effect not named in the record | Potency, µM (titrated, usually from 57.9 µM), for inactives: at the highest dose signal change, negative = less light | 410,000 compounds, 1.2% hits | AID 1159524, 2015; active = well fitted falling curve with a large enough effect; inconclusive = small, poorly fitted or top-dose-only effect; inactive = no such curve, though single readings can be large or run the other way; tested in HEK293T cells; note: % is set by controls: 0 for no effect and ±100 for the full control effect; nearly all actives have a fitted effect of over 45% in size; luciferase light after 4 h
MARV entry inh: qHTS for inhibitors of binding or entry into cells for Marburg Virus; Marburg virus pseudotyped entry inhibition, cell reporter; control for the full effect not named in the record; about a third of the inactives were read at about 46 µM; Potency, µM (series often up to 37.8 µM), for the others: at the top dose activity change, negative = inhibition, actives largely listed as inhibitors; 300,000 compounds, 1.8% hits; AID 540276, 2011; active = well fitted inhibition curve with a large enough effect; inconclusive = small, poorly fitted or top-dose-only effect, or effect the other way; inactive = flat fitted curve, though single readings scatter; tested in HEK293 cells; about a fifth of its hits are not listed in these tables; note: % is set by controls: 0 for no effect and ±100 for the full control effect; luciferase read-out
SARS PLpro yeast: qHTS of Yeast-based Assay for SARS-CoV PLP; S. cerevisiae expressing SARS-CoV PLpro, growth rescue; control for the full effect not named in the record; Potency, µM (titrated, usually from 32.9 µM), without a hit: top-dose activity, positive = growth rescue; 330,000 compounds, 0.19% hits; note: 0% is about no effect; nearly all actives have a fitted effect of over 55% in size; growth read by luminescence after 48 h
* marks the source's active call; other numbers are inactive results; u = inconclusive; x = no result given; & = joins results of further samples; [ ] = another dose, or the depositor's remark. Unless noted, calls come from the whole dose curve; as a rule, active means well fitted rising curve with a large enough effect; inconclusive means small, poorly fitted or top-dose-only effect; inactive means no such curve, though single readings can be large or run the other way. Potency is the fitted concentration of half-maximal effect.

SMILES | Cruzain noTriton | NS1 inh | LASV entry inh | RE007 growth inh | Cruzain inh Det | 2A StopGo | MARV entry inh | SARS PLpro yeast
Cc1cccc(Cc2nnc(CCC(=O)NCc3ccncc3C)o2)c1 | x | 0% | 9% | -18% | x | -8% | 2%[46.1 µM] | 0%
C=CCn1c(C)cc(C(=O)COc2nncc3ccccc23)c1C | -2% | 8% | -14% | 0% | 2.0% | 47%[activator] | -5% | 5%
Cc1cc(Oc2ccc([N+](=O)[O-])cc2)nc(N2CCOCC2)n1 | x | 3% | -8%[46.1 µM] | 4% | x | -9% | -8%[46.1 µM] | -1%
CC(=O)N/N=C(\C)CC(=O)Nc1ccc2c(c1)OCCO2 | x | 2% | 0%[46.1 µM] | 12% | x | 3% | -2%[46.1 µM] | 0%
Fc1ccccc1COc1cccc(/C=N/n2cnnc2)c1 | -8% | -71% | 17% | -3% | -1.5% | -28% | u | -3%
OCC#Cc1cnc2ccccc2c1 | 1% | -5% | 13% | 9% | 9.5% | 36%[activator] | 9% | 6%
COc1ccc(CNCC(=O)Nc2cccc(S(N)(=O)=O)c2)cc1 | x | 9% | -7% | 4% | x | -5% | 2% | 1%
CC(=O)C1=C(O)C(=O)N(CCCN2CCOCC2)C1c1ccccc1[N+](=O)[O-] (centres undefined) | x | 0% | 15% | -13% | x | 53%[activator] | u | -1%
O=C(CN1CCCCC1)Nc1cccc(-n2cnnn2)c1 | 8% | -10% | -5% | -8% | 2.1% | 3% | -20% | 0%
COCCOC(=O)C1=C(C)NC2=C(C(=O)CCC2)C1c1ccc(N(C)C)cc1 (centres undefined) | -1% | -5% | 0% | -6% | -4.5% | x | 7% | 2%
CC(O)(CS(=O)(=O)Cc1ccccc1)C(=O)Nc1ccc(C(F)(F)F)cc1 (centres undefined) | -2% | 8% | 5% | 6% | 2.1% | 11% | 4% | -3%
COc1cccc(-c2cc3nc(-c4ccccc4)cc(N4CCC5(CC4)OCCO5)n3n2)c1 | -14% | -30% | u | -14% | 28µM* | x | u | -20%
CN(CCc1cn[nH]c1)C(=O)C1CCC(=O)N(CC2CCCCC2)C1 (centres undefined) | x | 13% | 16% | 7% | x | -15% | 0% | 6%
Cc1cc(C(=O)NCc2cc(C(=O)O)co2)co1 | x | 5% | -14% | 4% | x | -11% | 11% | 3%
N#C/C(=N\Nc1ccccc1F)c1nc(-c2ccccc2)cs1 | x | x | 1% | 0% | x | -10% | u | -1%
CCOc1ccccc1-n1c(SCC(N)=O)nnc1-c1ccc(O)cc1 | -4% | -5% | u | 7% | 7.4% | -1% | -8% | -4%
Cc1cccc(Nc2nc(N)c([N+](=O)[O-])c(NCc3ccco3)n2)c1 | -15% | 25% | 2% | 33% | -15% | u | u | -3%
Cc1c(C)n2c(SCC(=O)NCc3ccc4c(c3)OCO4)nnc2[nH]c1=O | x | x | u | 8% | x | -14% | 19% | -4%
CC1CCN(S(=O)(=O)c2ccc3c(c2)N(CC(=O)NCCc2ccc(Cl)cc2)C(=O)CO3)CC1 | 17% | x | -2%[46.1 µM] | x | -3.9% | -13% | u | x
CCCc1cc(-c2n[nH]c(=S)n2C(C)c2ccccc2)cs1 (centres undefined) | -4% | -2% | -23% | 4% | -8.8% | 0% | u | 22µM*
CNC(=S)N/N=C/c1ccc(OCc2ccccc2)c(Br)c1 | 25µM* | 18% | u | u | -8.2% | 0% | u | 7%
Cc1cccc(-n2c(O)c(C=Nc3ccc(Br)cn3)c(=O)[nH]c2=O)c1 | x | 8% | 2% | 12% | x | -7% | -10%[14.2 µM] | -2%
CN(C)S(=O)(=O)c1cccc(NC(=O)COc2ccc(C(=O)c3ccccc3)cc2)c1 | x | u | u | -4% | x | u | u | 0%
CCC(C)Nc1nc(C)nc2c1oc1ccccc12 (centres undefined) | x | -7% | x | -10% | x | u | x | -1%
COCCn1c(SCc2cc(=O)n3ccsc3n2)nnc1-c1ccncc1 | x | x | x | -3% | x | -7% | 15%[46.1 µM] | -1%
SMILES | Cruzain noTriton | NS1 inh | LASV entry inh | RE007 growth inh | Cruzain inh Det | 2A StopGo | MARV entry inh | SARS PLpro yeast
NC(=O)c1ccc(-n2nnnc2Oc2ccc(Br)cc2)cc1 | x | x | -6% | 5% | x | -10% | 20%[46.1 µM] | 0%
C/C(=N\NC(=O)CNc1cccc(C(F)(F)F)c1)c1cccs1 | x | x | -9%[46.1 µM] | 0% | x | 1% | -3%[46.1 µM] | 0%
Cc1cccc(NC(=O)c2ccc(Cl)c(NC(=O)c3ccncc3)c2)c1C | x | -3% | 14% | -7% | x | -11% | -14%[46.1 µM] | 0%
O=C(N=C1SCC(=O)N1c1ccccc1Cl)c1ccco1 | -13% | 11µM* | 18% | -7% | -0.7% | 57%[activator] | 3% | -5%
O=C(Nc1ccc2c(c1)OCO2)Nc1ccc(Cl)cc1Cl | 25µM* | -2% | u | -9%[3.69 µM] | 5.6% | 39%[activator] | -1% | 1%
C/C(=N\NC(=O)c1c(Br)cnn1C)c1ccc(NC(=O)c2ccc(F)cc2)cc1 | x | -5% | -16% | -2% | x | 15% | u | 0%
CC(C)=Nc1ccccc1C1COC(=O)C1=N (centres undefined) | 8% | 7% | 0% | -5% | -4.3% | -17% | 21% | 5%
CN(Cc1ccccc1F)c1nc(-c2cccs2)nc2ccccc12 | -15% | -42% | 0% | -5% | -8.0% | u | 3% | -52%
COc1ccc(CCn2c(=O)[nH]c3cc(C(=O)NCCCN4CCOCC4)ccc3c2=O)cc1OC | x | 8%&-1% | 8%[46.1 µM] | u | x | u | -6%&-6%[46.1 µM] | 0%
CCOC(=O)C(C)n1cnc2c(nnn2-c2ccccc2)c1=O (centres undefined) | x | -4% | x | 17% | x | 7% | x | -1%
CCCN(C(=O)c1cc(S(=O)(=O)N2CCN(CC)CC2)ccc1Cl)C1CCS(=O)(=O)C1 (centres undefined) | x | x | 0% | -12% | x | 4% | -40% | x
CCN(CCn1cccn1)C(=O)CCc1nnc(-c2ccccc2)o1 | x | 4% | x | -4% | x | 80%[activator] | x | 0%
CS(=O)(=O)N(CC(=O)Nc1ccc(F)c(F)c1)c1cccc([N+](=O)[O-])c1 | 10% | -3% | 10% | 8% | -0.8% | -19% | 18% | -6%
Cc1cc(C)c(C#N)c(Sc2ccccc2N)n1 | x | x | 1%[46.1 µM] | -17% | x | 0% | -4%[46.1 µM] | 3%
CN(C(=O)CSc1nc2c(c(=O)[nH]1)CCCC2)C1CCCCC1 | 7% | 5% | 12% | -3% | 6.3% | -3% | -5% | 1%
Cc1ccccc1NC(=O)C1CCCN(S(=O)(=O)c2ccc(-n3cnnn3)cc2)C1 (centres undefined) | x | -4% | u | -16% | x | -12% | -1%[46.1 µM] | 1%
CC(=O)c1cccc(OCC(=O)Nc2cccc(C(=O)Nc3c(C)n(C)n(-c4ccccc4)c3=O)c2)c1 | x | x | -13% | 2% | x | -24% | 4% | -1%
Cc1ccc(S(=O)(=O)c2c(C)nn(C(C)(C)C)c2OC(=O)CC(C)C)cc1 | x | 9% | u | 1% | x | -28% | u | -8%
CCOC(=O)COc1ccc2c(c1)c(C(C)=O)c(C)n2Cc1ccccc1 | x | -3% | 0% | -8% | x | -13% | 14% | -7%
COC(=O)CN1C(=O)CSc2ccc(S(=O)(=O)Nc3cccc(C)c3C)cc21 | -4% | x | u | x | -8.0% | 3% | x | x
CCCNS(=O)(=O)c1ccc(OCC(=O)N2CCc3ccccc3C2)c(C)c1 | x | 0% | -23%[46.1 µM] | 12% | x | 24% | u | 4%
Cc1ccc2nc(-c3ccc(Cl)c(NC(=O)c4ccc5c(c4)OCCO5)c3)oc2c1 | 0% | x | u | x | 0.7% | 61%[activator] | u | x
O=C(c1ccc(Cl)c(S(=O)(=O)NCc2ccccc2)c1)N1CCN(c2ccccn2)CC1 | 0% | -19% | -15%[14.3 µM] | -16% | -4.9% | u | u | -3%
COc1ccc(OC)c(CNn2c(-c3ccccc3F)nc3ccccc3c2=O)c1 | x | x | -13% | 0% | x | u | -28%[46.1 µM] | -8%
COc1ccccc1N1CCN(C2CCCN(Cc3cc(F)cc(F)c3)C2)CC1 (centres undefined) | x | -3% | x | 1% | x | -29% | x | -6%
SMILES | Cruzain noTriton | NS1 inh | LASV entry inh | RE007 growth inh | Cruzain inh Det | 2A StopGo | MARV entry inh | SARS PLpro yeast
CC(C)n1c(SCC(=O)NC2CCCCC2)nnc1-c1ccco1 | x | 7% | 10%[46.1 µM] | 3% | x | -3% | 14%[46.1 µM] | 10%
CN1CCN(C(=O)CSc2nnc(COc3ccc(Cl)cc3)o2)CC1 | x | 22% | x | 22% | x | 18% | 9%[46.1 µM] | 1%
O=P1(O)C=C(c2ccccc2)OC(c2ccccc2)=C1 | -4% | 1% | u | 6% | 3.3% | 65%[activator] | u | 1%
Cc1nc2nc(NCc3cccs3)nn2c(C)c1Cl | 0% | -70% | u | -15% | 3.1% | 43%[activator] | u | 18%
COc1ccc(S(=O)(=O)N2CCN(Cc3ccco3)CC2)cc1 | x | -23% | 5%[46.1 µM] | 19% | x | 5% | 5%[46.1 µM] | 5%
CCCCc1ccc(Nc2nc(N3CCOCC3)nc(N3CCOCC3)n2)cc1 | x | 4% | 3%[46.1 µM] | -1% | x | 6% | x | 3%
Cc1ccc(NC(=O)CCN2C(=O)C3CCCCC3C2=O)c(O)c1 (centres undefined) | x | x | 17% | 16% | x | -3% | -2%[46.1 µM] | 0%
O=C(c1ccc(-c2ccccc2)cc1)N1CCCC1 | -1% | -54% | -15% | 3% | -1.9% | 67%[activator] | 10% | 1%
Cc1cc(C(=O)COC(=O)Cc2n[nH]c(=O)c3ccccc23)c(C)n1CC(F)(F)F | x | x | u | -17% | x | -2% | x | 1%
Cc1c(C(=O)N2CCCCCC2)c(S(=O)(=O)N(Cc2ccccc2)C(C)(C)C)c(C)n1C | u | x | -18%[46.1 µM] | x | -2.4% | -34% | x | x
